D2 PAM: potentiates the human D2 dopamine receptor allosterically; potentiation, % (concentration not given with the values); AID 624464; DiscoveRx D2 beta-arrestin cells, luminescence, 90 min; 100% = 57 uM dopamine signal; P14416; 360,000 compounds, 0.23% hits; active = potentiation of 50% or more; inconclusive = 30% to 50%; inactive = 30% or less;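 further: tested on top of an EC20 dose of dopamine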
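PathHunter D2 cells, attached overnight at 37 deg C, received compound in DMSO plus dopamine at EC20 (50 nM final) for 90 min at 37 deg C. Beta-arrestin recruitment was read as luminescence after 1 h with detection reagent at ambient temperature.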
ClpP mod: qHTS Assay for Activators of ClpP | ATP-dependent Clp protease proteolytic subunit (Bacillus subtilis (strain 168)), P80244 | Potency, µM (series often up to 57.5 µM), for inactives: at the top dose activity change, negative = active | purified B. subtilis ClpP, FRET peptide cleavage, 20 min | 340,000 compounds, 1.9% hits | AID 651965, 2013; active = well fitted falling curve with a large enough effect; inconclusive = small, poorly fitted or top-dose-only effect; inactive = no such curve, though single readings can be large or run the other way; further: potency means the concentration at half of the fitted maximal effect; the source files actives as falling curves though it sought activators and does not explain the sign; nearly all actives have a fitted effect of over 65% in size; many hits overshoot -100%
Target sequence (P80244 whole entry, looked up): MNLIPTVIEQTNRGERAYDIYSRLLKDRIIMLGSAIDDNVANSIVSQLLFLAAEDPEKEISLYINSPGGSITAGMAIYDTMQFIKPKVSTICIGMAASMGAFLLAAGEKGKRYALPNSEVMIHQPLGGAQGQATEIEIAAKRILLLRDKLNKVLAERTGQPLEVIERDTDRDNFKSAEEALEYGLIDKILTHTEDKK
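FRET quenching reversal measured ClpP activation: 10 microg/mL B. subtilis ClpP at pH 8 with the FRET-FV decapeptide, read at 430 nm after 320 nm excitation. The 20-min minus 0-min signal was scaled between DMSO/no-enzyme wells and ADEP (5.8 microM final).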
gsp antag: gsp mutant antagonism | 340,000 compounds, 0.4% hits | gsp-mutant cells, cAMP HTRF, 30 min; control for the full effect not named in the record | AID 624288 | Potency, µM (highest dose often 76.9 µM), for inactives: at the top dose activity change, negative = inhibition, most hits filed as inhibitors; active = falling curve of any shape with a large fitted effect; inconclusive = falling curve, mostly with a smaller effect; inactive = flat or rising curve; cell line not stated here;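 further: intracellular cAMP measured with PDE inhibitor Ro 20-1724 present during compound exposure; potency means the concentration at half of the fitted maximal effect; on the % scale 0 is the no-effect control and ±100 the full control effect; nearly all actives have a fitted effect of over 65% in size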
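Cells, 2000/well, grown 16–24 h in DMEM 10% FBS with 0.5 mg/ml G418, then compounds plus […] (300 uM addition stock), 30 min at 37C. cAMP read by HTRF (cAMP-d2 and anti-cAMP antibody-K in lysis buffer) after 30 min RT.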
TRPV1 potentiator: potentiators of human vanilloid receptor 1 (TRPV1). Q8NER1. TRPV1-expressing cells, Fluo-8 calcium influx, capsaicin EC20 potentiation; host cell line not named in the record; control for the full effect not named in the record. potentiation, % at 8.33 µM. 320,000 compounds, 0.02% hits. AID 540277; active means potentiation above 80%; inconclusive means 30% to 80%; inactive means below 30%; further: 0% is about no effect
Target sequence (Q8NER1 whole entry, looked up): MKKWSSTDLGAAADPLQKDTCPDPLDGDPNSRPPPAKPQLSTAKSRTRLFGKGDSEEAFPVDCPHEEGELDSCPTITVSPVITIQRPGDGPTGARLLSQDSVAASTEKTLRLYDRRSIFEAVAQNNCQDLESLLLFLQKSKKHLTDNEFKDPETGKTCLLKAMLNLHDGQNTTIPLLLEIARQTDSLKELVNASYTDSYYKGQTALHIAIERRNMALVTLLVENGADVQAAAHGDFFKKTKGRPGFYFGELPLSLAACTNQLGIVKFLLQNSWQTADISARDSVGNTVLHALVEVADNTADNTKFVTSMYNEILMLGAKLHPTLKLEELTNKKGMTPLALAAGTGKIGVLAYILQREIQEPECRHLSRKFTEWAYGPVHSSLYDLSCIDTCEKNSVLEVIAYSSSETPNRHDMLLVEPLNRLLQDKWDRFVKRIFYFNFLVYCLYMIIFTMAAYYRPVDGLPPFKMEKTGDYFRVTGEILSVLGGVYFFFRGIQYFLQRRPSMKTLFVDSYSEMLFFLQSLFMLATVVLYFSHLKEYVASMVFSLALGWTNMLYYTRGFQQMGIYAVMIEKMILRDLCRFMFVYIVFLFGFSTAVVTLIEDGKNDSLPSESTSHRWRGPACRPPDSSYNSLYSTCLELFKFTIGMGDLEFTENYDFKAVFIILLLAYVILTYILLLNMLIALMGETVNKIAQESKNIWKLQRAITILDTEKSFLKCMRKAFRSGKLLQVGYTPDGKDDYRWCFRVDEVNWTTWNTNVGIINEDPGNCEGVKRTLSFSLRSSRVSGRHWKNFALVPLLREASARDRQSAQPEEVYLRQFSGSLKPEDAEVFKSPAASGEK
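TRPV1-expressing cells were cultured overnight at 35.5C and loaded with Fluo-8 calcium dye for 40 to 90 min at room temperature. After a 10 s baseline, compound was added and calcium influx was read kinetically for 3 min (ex 480/em 520 nm).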
Menin-MLL FL inh: menin-MLL binding inhibition, fluorescein peptide. Fluorescence polarization, fluorescein-MLL peptide displacement from menin. FP activity change, % at 61.4 µM. 290,000 tested, under 10 active. AID 1766; inconclusive = falling polarisation curve, or a change in total fluorescence; inactive = total fluorescence flat and polarisation flat or rising; no compound was filed as active; the % refers to the polarisation; negative = inhibition;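 further: % of control where 0% means no effect; inhibitors lower the polarisation; unlabelled MLL peptide was the positive control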
gsp agonist: activates gsp, the McCune-Albright syndrome mutation. gsp mutant cells, cAMP HTRF, 30 min; control for the full effect not named in the record. Potency, µM (highest dose often 76.9 µM), inactives show at the highest dose activation (cAMP increase), usual class: activators. 340,000 compounds, 0.13% hits; active = well fitted activation curve with a large enough effect; inconclusive = small, poorly fitted or top-dose-only effect, or another doubt; inactive = no such curve, though single readings can be large or run the other way; cell line not stated here;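 further: phosphodiesterase inhibitor Ro 20-1724 added with compounds to block cAMP breakdown; potency means the concentration at half of the fitted maximal effect; nearly all actives have a fitted effect of over 60% in size; about a fifth of the inactives were tested at one dose only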
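Cells in DMEM/10% FBS with G418 were pretreated with compounds in DMSO plus […] (300 uM stock) for 30 min at 37C. cAMP was measured by HTRF (cAMP-d2 plus anti-cAMP antibody-K) after 30 min at room temperature.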
Sfp PPTase inh: blocks B. subtilis Sfp PPTase activity; Q9F4F7; Biochemical Sfp PPTase activity, qHTS; Potency, µM, for inactives: max response, negative = inhibition, hits mostly inhibitors; 310,000 compounds, 3.5% hits; active means well fitted inhibition curve with a large enough effect; inconclusive means small, poorly fitted or top-dose-only effect, or another doubt; inactive means no such curve, though single readings can be large or run the other way;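 further: the enzyme is Sfp with the accession as filed and its product quenches rhodamine fluorescence; potency means the concentration at half of the fitted maximal effect; 0% = enzyme reaction without inhibitor and -100% = no enzyme wells; top concentration of the series not given in the record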
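Compounds were incubated with enzyme (final 15 nM) for 15 min at room temperature before substrate addition started the reaction. Fluorescence at 525 nm excitation, 598 nm emission was recorded immediately and after 30 minutes.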
Starred values were filed as active, the others as inactive; i = inactive; ? = inconclusive; · = not tested or not shown; & = joins results of further samples; [ ] = remark or other dose.

Structure,TRPV1 potentiator,gsp antag,Sfp PPTase inh,gsp agonist,D2 PAM,Menin-MLL FL inh,ClpP mod
CCc1ccc(N2CC(C(=O)OCC(=O)Nc3ccc(C(C)=O)cc3)CC2=O)cc1 (stereo unspecified),-10,-2%,·,4%,0,·,1.7%
NNC(=O)c1ccc(COc2ccc3c(c2)CCC3)cc1,-4,2%,15%,4%,6,1.4,-2.3%
CC(=O)[C@H]1[C@H]([C@H](O)[C@H](O)CO)O[C@](O)(C(=O)O)C[C@@H]1O,-11,10%,·,·,-30,·,1.3%
O=C(c1ccc(Cl)cc1[N+](=O)[O-])N1CCN(c2ccccn2)CC1,3,6%,11%,8%,-1,-1.7,0.9%
COc1ccc(NC(=O)c2nc[nH]c2C(=O)N2CCN(c3ccccc3)CC2)cc1,4,-5%,14%,·,-8,-3.9,118%
Nc1nonc1-c1nc2ccccc2n1Cc1ccc(F)cc1Cl,9,-3%,14%,-19%,-12,9.4,-3.0%
COc1ccccc1CNC(=O)CN(C)S(=O)(=O)c1cccc2cccnc12,15,0%,6%,-28%[15.4 µM],-7,-0.4,·
Nc1c(Cl)ncnc1N1CCCC1,-8,7%,22%,29%,-3,5.4,·
COc1cccc(CCNC(=O)CCc2nnc(Cc3cc(OC)ccc3OC)o2)c1,-4,-9%,6%,-3%,-2,0.3,1.9%
Cc1noc(NS(=O)(=O)c2ccc(NC(=O)CCC3CCCC3)cc2)c1C,28,1%,-13%,14%,-8,-5.4,0.8%
Nc1nc(SC23CC4CC(CC(C4)C2)C3)ns1,1,11%,8%,-30%[15.4 µM],-1,-0.6,·
CCCCP(=O)(CCCC)c1ccccc1C(=O)O,-7,10%,-8%,2%,-4,1.8,0.5%
COCCCNC(=O)CSc1c2c(nc3ccc(Cl)cc13)CCCC2,-9,-11%,16%,-39%[15.4 µM],-4,-1.8,0.2%
O=S(=O)(Nc1ccccc1Br)c1cccs1,5,-4%,13%,?,-9,-4.1,·
Cc1ccc(CNC(=O)CN(C)S(=O)(=O)c2cnc[nH]2)cc1,0,10%,20%,-2%[15.4 µM],5,1.2,0.2%
COc1ccc(C(C(=O)NC2CCCC2)N(Cc2cccnc2)C(=O)Cc2cccs2)cc1OC (stereo unspecified),-4,4%,-13%,-13%,-2,-0.3,·
CN1CCN(c2ccccc2NC(=O)c2c(F)cccc2F)CC1,6,12%,29%,-6%[15.4 µM],-7,1.4,0.7%
O=C(c1ccc(F)c(S(=O)(=O)N2CCOCC2)c1)N1CCN(c2ccc(F)cc2)CC1,5,-6%,·,3%,-1,·,0.3%
O=C(Nc1ccccc1C(=O)NCCN1CCOCC1)c1cccc([N+](=O)[O-])c1,-2,-20%,3%,-73%[inhibitor],-32,4.5,1.0%
Nc1nc2ccccc2n1/N=C/c1ccc(-c2ccccc2)o1,-2,?,-21%,8%,-15,13,10%
CCCC(C)C(=O)NCc1ccccc1OC (stereo unspecified),-13,2%,5%,-8%,-1,-6.3,-0.1%
COc1cc2cc(CCO)oc(=O)c2cc1OC,·,22%,·,14%,-6,·,3.8%
CCOC(=O)CSc1nc(C)cc(Oc2ccc(=O)n(C)n2)n1,-5,?,-1%,-15%,-4,1.5,-2.5%
CCCCc1nnc(NC(=O)CCS(=O)(=O)Cc2ccccc2)s1,-15,0%,6%,-2%,-26,·,3.1%
O=C(Nc1ccc(Oc2ccccc2)cc1)C1CCN(c2ncccn2)CC1,-7,1%,5%,16%,-4,3.1,-6.5%
COc1ccc(Cl)cc1C(=O)NNC(=O)c1[nH]c(C)c(C(C)=O)c1C,·,-12%,·,3%,-3,·,-7.2%
COc1ccc(NC(=S)NC(=O)c2ccccc2)cn1,-4,-2%,4%,-20%,0,3.8,3.5%
CCSC1=N/C(=C\c2ccc3c(c2)OCO3)C(=O)S1,-7,-1%,-23%,-2%,6,-1.3,-2.0%
Cc1ccc(S(=O)(=O)N2CCOCC2)cc1NC(=O)CSc1nc2ccccc2c(=O)n1Cc1ccccc1,-10,2%,0%,-40%[inhibitor],-9,·,-5.1%
CC(=O)NCCc1cc2ccc(C)c(C)c2[nH]c1=O,2,9%,7%,-18%,0,-1.9,5.2%

Continued.
Structure,TRPV1 potentiator,gsp antag,Sfp PPTase inh,gsp agonist,D2 PAM,Menin-MLL FL inh,ClpP mod
O=C(Cc1ccc(F)cc1)NCC1CCCO1 (stereo unspecified),10,6%,-3%,-4%,-4,-0.1,·
O=C(c1ccc(Cl)c(Cl)c1)N1CCN(Cc2ccc3c(c2)OCO3)CC1,-5,3%,-1%,5%,-20,-2.6,0.5%
Cc1ccc(C)c(CSC2=NCCN2S(=O)(=O)c2ccccc2)c1,1,-14%,-7%,-29%,-8,-7.0,-7.8%
O=C(NC12CC3CC(CC(C3)C1)C2)C1CC(=O)N(c2ccc(Br)cc2)C1 (stereo unspecified),-12,-5%,20%,-45%[inhibitor],-4,4.4,5.1%
CC(C)(O)C#Cc1ccc(C(=O)NCCc2ccc(S(N)(=O)=O)cc2)cc1,5,5%,-12%,20%,14,9.6,·
O=C(CN1C(=O)NC(Cc2ccccc2)C1=O)Nc1ccc(F)cc1 (stereo unspecified),29,-7%,6%,-4%,-1,0.3,1.5%
CC1CCc2c(sc(NC(=O)CCc3nc4ccccc4c(=O)[nH]3)c2C#N)C1 (stereo unspecified),-3,1%,·,26%,-8,·,-3.5%
Cn1nnnc1Sc1ncnc2scc(-c3ccc(F)cc3)c12,-16,14%,-11%,-15%,1,-3.0,-5.1%&-0.7%
CCN(CC)CCN(Cc1cc2cc3c(cc2[nH]c1=O)OCCO3)C(=O)NC1CCCCC1,-5,3%,-1%,5%,-23,0.1,25µM*
COc1ccc(/C=C/C(=O)OCC(=O)NC2CCCC(C)C2C)cc1 (stereo unspecified),·,3%,·,-6%,-4,·,-18%
Cc1ccccc1NC(=O)C1CCCN(C(=O)Nc2ccc(F)cc2)C1 (stereo unspecified),2,13%,0%,8%,-8,-0.2,·
Cc1ccc(NC2CCCN(C(=O)c3nonc3C)C2)cc1C (stereo unspecified),·,·,·,11%,-14,·,-2.0%
C/C(=N\NC(=O)c1nnn(-c2nonc2N)c1CSc1ccc(C)cc1)c1cccnc1,·,·,·,-132%[inhibitor],-24,·,-3.9%
COc1cc2[nH]c(=S)n(CCN3CCOCC3)c(=O)c2cc1OC,2,3%,18µM*,-9%,-6,-3.4,2.1%
COCCOc1ccc(C(F)(F)F)cc1NC(=O)COC(=O)Cc1c[nH]c2ccccc12,2,-8%,·,5%,-2,·,-2.7%
CCCn1c(SCC(=O)Nc2ccc(C(=O)Nc3ccccc3OC)cc2)n[nH]c1=O,-8,-11%,3%,-7%[15.4 µM],-4,1.2,·
CCOc1ccc(NC(=O)N(CCCN2CCOCC2)Cc2cccnc2)cc1,-2,-1%,-1%,8%,-6,1.4,-0.3%
O=C(Cn1cnc(S(=O)(=O)N2CCCC2)c1)Nc1ccc(OC(F)(F)F)cc1,-7,9%,-1%,0%,-18,·,-2.4%&2.4%
O=C(Cn1cccc1)NCc1cccs1,8,-2%,-2%,-42%[inhibitor],-2,0.1,0.2%
Cc1nnc(SCCn2c(N3CCN(C)CC3)nc3c2c(=O)[nH]c(=O)n3C)s1,-5,9%,-2%,-20%,-10,-1.4,1.4%
CC1CCC(NC(=O)CCS(=O)(=O)c2ccc3c(c2)CC(C)N3C(=O)C2CC2)CC1 (stereo unspecified),3,-4%,6%,22%,3,-11,-0.3%
N#C/C(=C\c1ccc(OCc2ccc(F)cc2)cc1)C(=O)Nc1cccc(C(=O)O)c1,-3,-18%,11%,7%,-2,3.5,1.7%
COc1cccc(-c2ncc3ccccc3c2COC(=O)c2cccs2)c1,1,-18%,·,-17%,-3,·,-18%
Cc1ccc(NCC(O)C(O)C(O)CO)cc1C (stereo unspecified),-9,-15%,10%,-15%,7,1.4,-1.1%
Cc1ccc(S(=O)(=O)N(C)C)cc1NC(=O)C1CCC1,?,10%,23%,-2%[15.4 µM],-21,2.1,·
CCc1cccc(C)c1NC(=S)N(CCN(C)C)C(C)c1cccnc1 (stereo unspecified),0,-3%,14%,0%[15.4 µM],-6,1.0,-1.3%
O=C(CCCOC(=O)c1ccc(O)cc1O)c1ccccc1,12,-11%,·,26%,4,·,-2.4%
Cc1cc(C)cc(NC(=O)COC(=O)CCCC2=NS(=O)(=O)c3ccccc3N2)c1,26,0%,4%,6%,-4,-3.6,-3.6%
COc1ccc(Oc2nccc(-c3ccccc3)c2C#N)cc1,-12,-11%,-1%,-65%[inhibitor],-30,3.3,-0.9%
c1ccc(-c2cc3c(N4CCOCC4)ncnc3s2)cc1,-11,-15%,0%,37%,5,0.5,28µM*

The listing continues.
Structure,TRPV1 potentiator,gsp antag,Sfp PPTase inh,gsp agonist,D2 PAM,Menin-MLL FL inh,ClpP mod
CCCCN(C(=O)COC(=O)CSc1ccc([N+](=O)[O-])cc1)c1c(N)n(CCC)c(=O)[nH]c1=O,6,3%,·,-28%,6,·,1.8%
O=C(Nc1ccnn1C1CCN(CCCc2ccccc2)CC1)c1cccc(F)c1,6,11%,14%,-7%,-19,·,0.8%
CC(=O)OCCc1[nH]c2ccccc2c1C,1,8%,3%,·,-6,-2.9,0.1%
CC1(C)Cc2nc3oc4c(N5CCOCC5)ncnc4c3cc2CO1,5,-1%,14%,-9%,3,-2.6,-17%
O=C1CCCC2=C1C1O[C@](CCCCN3C(=O)c4ccccc4C3=O)(Cc3ccccc31)O2,i,·,-2%,·,·,-3.7[11.7 µM],·
Cc1oncc1-c1cn2ccccc2n1,3,13%,9%,8%,-4,4.5,25µM*
O=C(O)C1=C[C@@H](c2csc3ccccc23)C[C@@H](OCCCCO)O1,-16,-2%,15%,-18%,-7,5.8,-4.8%
NC(=S)N=Nc1c(O)[nH]c2c(Br)cc(Br)cc12,-3,20%,-1%,-7%,-5,-0.6,·

Screens deposited in PubChem BioAssay by National Center for Advancing Translational Sciences (NCATS).

Compounds as they come (roughly 5.1% active in at least one column).
